ugtP null kill – kills S. aureus RN4220 lacking UgtP; S. aureus RN4220 ugtP deletion, OD600 growth, 16 h; some inactives read as strong as hits; growth inhibition, % (no concentration beside the values); 330,000 compounds, 0.54% hits;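 active = z-score under -3 and OD600 up to 0.15 on both plates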;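 note: plate controls were untreated wells for no effect and antibiotic for full effect; wells of about 80 µL received 100 nL stock; the first replicate is given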
BJeLR viability – BJeLR cell viability loss; BJeLR (HRASV12) viability, CellTiter-Glo ATP luminescence, 48 h; reference of the scale not given here; inhibition, % (concentration not given with the values); AID 1554; 300,000 compounds, 0.17% hits;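 active = replicate mean above 50%; inconclusive = above 50% but judged a plate artefact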;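 note: 50 nL library stock added to about 25 µL; numbers are from one replicate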
Bead autofluor – flagged as autofluorescent in microsphere protease counterscreen. compound autofluorescence counterscreen, microsphere flow cytometry; hits give high values. fluorescence intensity (concentration not given with the values). 360,000 compounds, 3.1% hits. AID 624483;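 active = at least 3 SD above the mean of all compounds, about 16000 in these data; inconclusive = too few beads counted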;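 note: 100 nL of 1 mM stock went into each well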
RN4220 kill – S. aureus RN4220 growth inhibition; 330,000 compounds, 0.33% hits; OD600, 16 h; inhibition, % (concentration not given with the values);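 active = z-score of -3 or lower and OD600 up to 0.18 on both plates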;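 note: plate controls were untreated cells for no effect and reference antibiotic for full effect; stock transfer was 100 nL into about 80 µL; one replicate is shown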
Mtb hypoxia rep – inhibitors of hypoxia-regulated fluorescent reporter in Mycobacterium tuberculosis; AID 1159583; 300,000 compounds, 0.1% hits; fluorescence inhibition, % (test concentration not listed); M. tuberculosis hypoxia-regulated fluorescent reporter, fluorescence;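 active = 35 to 45% if threefold the growth effect, above 45% if 1.5-fold the growth effect; inactive = the rest, general growth blockers included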;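 note: wells of about 50 µL received 100 nL stock; 0% = vehicle wells and 100% = reference inhibitor wells; whole bacteria with a GFP reporter of the hypoxia response; strong numbers were not always called active; many hits fall short of the cut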
PrP UTR inh – inhibition of PrP 5' UTR reporter expression; 340,000 compounds, 0.35% hits; cell-based PrP 5' UTR mRNA reporter, plate reader; inhibition, % (concentration not given with the values);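 active = every replicate at 50% or more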;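 note: 0 = median of the neutral control wells; tested in H4 reporter cells; numbers are from one replicate; inactives centre near -14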
Mtb hypoxia rep growth – further read-out of Mtb hypoxia rep, marked with its call; growth inhibition, %; measured here: M. tuberculosis growth (absorbance);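 0% = vehicle and 100% = reference antibiotic; read after six days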
* hit, by the source's call; ? = inconclusive; / = not tested or not shown. Compounds were not picked by outcome; about 4.1% have a hit in one of these screens.

Values run as follows: ugtP null kill, BJeLR viability, Bead autofluor, RN4220 kill, Mtb hypoxia rep, Mtb hypoxia rep growth, PrP UTR inh
CCOC(=O)Cn1c(=O)oc2cc(S(=O)(=O)Nc3c(C)cc(C)cc3C)ccc21
    15, /, 5419, 7.9, 6, 4, -21
O=C(Cc1ccccc1)Nc1ccccc1C(=O)Nc1ccc(C(=O)O)cc1
    4, -5, 4042, 4.0, 14, 2, -13
N/C(=N\OC(=O)Cc1ccccc1)c1cccc(Br)c1
    4, -2, 4578, 7.5, 14, 2, -20
COc1ccc(N(Cc2cc3ccc(C)cc3[nH]c2=O)C(=O)c2ccco2)cc1
    0, -1, 3027, 8.2, -4, -3, -15
CCCc1nnc(NC(=O)c2cc3ccccc3o2)s1
    -4, 3, 3701, -1.2, -16, 0, -17
CN1CCc2cc(Cl)c(O)cc2C(c2ccccc2)C1 (configuration not stated)
    7, /, /, 3.6, 3, 12, /
O=C(NCCc1cccc(F)c1)C1CCCN(c2nc3ccccc3s2)C1 (configuration not stated)
    2, 1, 3814, 4.3, -5, -8, -23
O=C(Nc1cccc(S(=O)(=O)N2CCCCC2)c1)c1cncc(Br)c1
    2, /, 2921, 2.8, 7, 0, -5
Fc1ccc(C=NNc2ccccn2)cc1
    3, /, /, 2.9, 1, 0, /
CCN(CC)S(=O)(=O)c1ccc(N2CCOCC2)c(NC(=O)c2ccccc2)c1
    0, 3, 2502, 7.8, 3, 0, 7
O=C(CCC(=O)Nc1ccccc1)NNC(=O)c1ccco1
    9, 1, 11532, -0.7, 3, 4, -14
COc1cc2c(cc1OC)C(O)C(O)(CO)C(C(=O)O)C2c1cc(OC)c(OC)c(OC)c1 (configuration not stated)
    0, /, 3335, 4.8, 16, 4, -19
CCCCNC(=O)c1onc(CSc2ccc(F)cc2)c1C(=O)O
    0, 2, 4090, 9.7, 6, 13, 4
CCN(CC)c1nc2c3c(nc4c(c3c1C#N)CC(=O)N4c1ccc(Cl)cc1)NC(C)=N2
    -4, -12, 2927, 16, 4, 11, -17
Cc1cc(-c2ccc(C)c(S(=O)(=O)NCC3CCN(Cc4ccccc4F)CC3)c2)on1
    6, -6, 6175, 5.1, 18, 13, -7

The results go on.
Values run as follows: ugtP null kill, BJeLR viability, Bead autofluor, RN4220 kill, Mtb hypoxia rep, Mtb hypoxia rep growth, PrP UTR inh
O=C(O)/C(=C\c1ccc(Br)cc1)NC(=O)c1cccs1
    10, -8, 3698, 6.6, -3, 0, 10
COc1ccc(CCNC(=O)CSc2nnc3c(n2)[nH]c2ccc(F)cc23)cc1OC
    8, -6, 3466, 5.9, -4, 1, -39
CC1CCc2ccccc2N1C(=N)N(C)C (configuration not stated)
    2, -18, 3859, 5.0, 6, 8, -1
OC(CN1CCOCC1)c1csc2ccccc12 (configuration not stated)
    -2, 7, 6319, 3.4, 8, 10, -19
O=C(CCC(=O)c1ccc(-c2ccccc2)cc1)Nc1cccnc1
    12, 0, 4787, 4.3, -1, 0, -19
CC(Sc1ncnc2sc(-c3ccccc3)cc12)C(=O)N1CCNC1=O (configuration not stated)
    -11, /, 3944, 1.2, -2, -2, -1
CN(C)C(=O)[C@@H]1C[C@H]1[C@@H](NC(=O)OCc1ccccc1)c1ccccc1
    /, -7, 2795, /, /, /, -19
COc1cc(C=NNC(=O)C(=O)N2CCCC2)ccc1O
    2, /, /, -0.9, -1, 6, /
COc1ccccc1CCNC(=O)c1ccc(OC)c(OC2CCN(C(C)C)CC2)c1
    6, 0, 6469, 1.5, 4, 2, -18
CCn1ccnc1CN(C)C(=O)c1cc(COc2ccc(-n3cncn3)cc2)on1
    4, 2, 5372, 3.3, -9, -6, -20
CN(C)S(=O)(=O)Nc1ccccc1C(N)=O
    9, 0, 6382, 2.6, 1, -2, 21
Cn1c(SCC(=O)Nc2ccc3nc(SCC(=O)N4CCCC4)sc3c2)nnc1-c1ccccc1
    5, -3, /, 18, 7, 4, /
COc1ccc(CN2C(=O)C(C)Nc3ncnc(N4CCOCC4)c32)cc1 (configuration not stated)
    -16, /, 3565, 1.7, -1, 5, -5
O=C(O)c1cc(S(=O)(=O)N2CCOCC2)c[nH]1
    4, /, 4027, 4.0, 1, 6, -12
Cc1nnc(SCC(=O)NC(=O)NC(C)(C)C)s1
    5, 0, 3542, 1.3, 5, -2, -24

Other structures
Values run as follows: ugtP null kill, BJeLR viability, Bead autofluor, RN4220 kill, Mtb hypoxia rep, Mtb hypoxia rep growth, PrP UTR inh
Cc1ccsc1C(=O)OCC(=O)Nc1ccc(Cl)cc1C(F)(F)F
    5, 2, 2801, 3.2, -6, -1, -12
COCCN(C(=O)CSCc1ccc(C)cc1)c1c(N)n(CC(C)C)c(=O)[nH]c1=O
    4, /, 8641, 5.4, 7, 3, -10
Cc1ccc(C(=O)OCC(=O)NCc2cccs2)c(C)c1
    3, -5, 3697, 8.1, -4, 3, -25
N#CC1=C(S)N=C(N)C(c2nc(-c3ccccc3)cs2)C12CCCCC2 (configuration not stated)
    /, 14, 3659, /, /, /, -10
CC(C)(C=NO)N(O)C=C1C=CC(=O)C=C1
    -7, /, /, 1.7, 14, 15, /
Cc1ccc(Nc2nc(N)nc(CSc3nnnn3-c3ccccc3)n2)cc1
    -12, -1, 7985, 6.9, 6, -2, -21
CN1CCN(C(=S)Nc2ccc(Cl)cc2)CC1
    3, 12, 2449, 0.6, 12, 3, -7
Cn1c(=O)c2c(nc(Sc3n[nH]c(N)n3)n2Cc2ccccc2Cl)n(C)c1=O
    1, 3, 9085, 0.0, 3, 6, -1
COc1cc(OC)cc(-c2c(C#Cc3ccsc3)c3cc(-c4cccc5[nH]cc(C=O)c45)ccc3n2C)c1
    -3, /, 3133, 3.5, 2, 1, -20
CC(C)(C)NC(=O)CC(CC(=O)O)c1ccccc1 (configuration not stated)
    -1, 2, 4486, 1.3, /, /, 11
C=CCSC1=C(C#N)C(c2ccccc2Cl)CC(=O)N1 (configuration not stated)
    3, 4, 5486, 6.5, 4, 4, -34
CCOC(=O)C1(CC2CCCCO2)CCN(C(=O)Nc2cccc(SC)c2)CC1 (configuration not stated)
    -3, -3, 4526, 0.7, 9, -2, -23
O=C(CCCN1C(=O)c2ccccc2C1=O)NCC1CCCO1 (configuration not stated)
    -2, -2, 15438, 0.1, -6, -19, -18
O=c1c2ccccc2nnn1CSc1ccccc1
    7, 12, 2129, 9.5, 8, 9, -63
Cc1ccc(Cl)cc1NC(=O)CCC(=O)Nc1cc(Cl)ccc1C
    0, -8, 4195, 3.7, 6, 9, -5

The results go on:
Values run as follows: ugtP null kill, BJeLR viability, Bead autofluor, RN4220 kill, Mtb hypoxia rep, Mtb hypoxia rep growth, PrP UTR inh
COC(=O)N/N=C/c1cc(Cl)c(OCc2ccccc2F)c(OC)c1
    /, -11, 4264, /, /, /, -29
Cc1ccccc1C(=O)NC1CCN(CC(=O)Nc2ccccc2Cl)CC1
    3, 1, 3584, 2.0, -3, 0, -7
O=C(NN1CCOCC1)c1cc(Cl)ccc1Cl
    2, -1, 5814, -0.1, -2, 0, 17
Cc1ccc(S(=O)(=O)N2CCOCC2)cc1NC(=O)CNc1ccccc1N1CCCC1=O
    0, /, ?, 2.1, -1, 8, 12
Clc1ccc2nc(CSCc3ccccc3)cn2c1
    -2, 0, 4789, 3.2, 4, 0, -68
O=C(CSC1=NC(=O)C(c2ccccc2)C(=O)N1)Nc1ccccc1[N+](=O)[O-] (configuration not stated)
    16, 7, 2542, 4.3, 10, 3, -37
O=C(CSc1nnc(NC(=O)c2ccccc2F)s1)NCC1CCCO1 (configuration not stated)
    9, 7, 5372, -8.1, 5, 4, 2
COc1ccc(CN2CCC(C(=O)Nc3ccc(Oc4cccnc4)cc3)CC2)cc1
    -2, -5, 6682, 0.5, 14, 5, -17
O=C(NCc1ccco1)/C(=C/c1ccco1)NC(=O)c1ccco1
    4, 6, 3971, 1.7, -6, 7, -27
COc1ccc(/C=N/NC(=O)CCn2c3ccccc3c3ccccc32)cc1OC
    /, -2, 2540, /, /, /, -6
CC(C(=O)N1CCc2ccccc21)N1CCc2ccccc2C1 (configuration not stated)
    -3, -5, 4100, 4.3, 9, 19, -14
COc1ccc(N2CCN(C(=O)c3cn(CC4CCCCC4)nn3)CC2)cc1
    18, -6, 4370, 4.7, 3, -5, -13
CN(C)C(=O)Oc1ccc(-c2nnco2)cc1
    8, -4, 5367, 3.0, /, /, -22
CCOc1cc(-c2nc3n(c(=O)c2C#N)CCS3)ccc1O
    3, -15, 4240, 3.9, -6, 15, -10
O=C(O)Cc1sc(Nc2cccc3ccccc23)nc1-c1ccc(Cl)cc1
    2, 4, 3575, 4.2, 15, 8, -51

(listing goes on)
Values run as follows: ugtP null kill, BJeLR viability, Bead autofluor, RN4220 kill, Mtb hypoxia rep, Mtb hypoxia rep growth, PrP UTR inh
N#Cc1ccc(NN=Cc2cn(-c3ccccc3)nc2-c2ccccc2)c([N+](=O)[O-])c1
    -4, /, /, -1.0, 4, 1, /
COCCN(C(=O)CSc1nc2ccc(C)cc2[nH]1)c1c(N)n(Cc2ccccc2)c(=O)[nH]c1=O
    0, 12, 4484, -1.9, -3, 3, -19
CC(C)C(=O)NC(=S)Nc1c(Cl)ccc2nsnc12
    0, 7, 5884, 4.1, -6, -11, -20
O=C(N/N=C/c1sc(=O)n(-c2ccccc2)c1Cl)c1ccccc1
    /, 5, 2614, /, /, /, -115
Cc1ccc(S(=O)(=O)CCC(=O)N2CCN(c3ccc(Cl)cc3)CC2)cc1
    -2, 15, 17240*, 1.7, -1, 8, -13
OCCC1CN(Cc2nc3ccccc3[nH]2)CCN1C1CCCC1 (configuration not stated)
    3, 13, 4389, 2.1, 9, 2, -8
N#Cc1cn(CC(=O)NCC2CCCO2)c2ccccc12 (configuration not stated)
    -3, 0, 7906, 6.5, -1, 2, -19
O=C(NCCN1CCOCC1)c1ccc(Cl)c([N+](=O)[O-])c1
    -1, 3, 3618, 2.1, -1, 10, -12
CN(C(=O)C1CCOC1)c1nnc(-c2ccncc2)s1 (configuration not stated)
    12, 4, 3468, 3.3, 8, 5, -1
O=C(CSc1nnc(CNC(=O)c2ccco2)o1)Nc1nc2ccccc2s1
    -3, 1, 2083, 2.9, -5, -8, 10
Cc1ccc(Nc2ncnc3c2cnn3C)c(C)c1
    15, -16, 4118, 5.2, 9, 6, -46
Cc1ccc(C(=O)CCNc2ccccc2)o1
    3, -1, 3549, 1.7, /, /, -23
Cc1c(C)c(C)c(/C=[N+](/C)[O-])c(C)c1C
    12, 3, 2457, 2.6, 9, 2, -27
CNn1cnc2ccsc2c1=O
    1, -2, 3556, 2.7, 2, 1, -19
CN1CCc2c(sc(NC(=O)C3CCN(S(=O)(=O)c4cccs4)CC3)c2C(N)=O)C1
    7, 14, /, 2.6, 8, 7, -10

Next part, starting with the last 4 of the part before.
Values run as follows: ugtP null kill, BJeLR viability, Bead autofluor, RN4220 kill, Mtb hypoxia rep, Mtb hypoxia rep growth, PrP UTR inh
Cc1ccc(C(=O)CCNc2ccccc2)o1
    3, -1, 3549, 1.7, /, /, -23
Cc1c(C)c(C)c(/C=[N+](/C)[O-])c(C)c1C
    12, 3, 2457, 2.6, 9, 2, -27
CNn1cnc2ccsc2c1=O
    1, -2, 3556, 2.7, 2, 1, -19
CN1CCc2c(sc(NC(=O)C3CCN(S(=O)(=O)c4cccs4)CC3)c2C(N)=O)C1
    7, 14, /, 2.6, 8, 7, -10
COc1cc(C2N(c3ccc(Cl)c(Cl)c3)C(=O)C3CCCN32)cc(OC)c1OC (configuration not stated)
    -2, 3, 9294, 1.8, -9, 2, -5
CCOC(=O)C(NC(=O)c1ccccc1)C(C)(C)SCc1ccccc1 (configuration not stated)
    4, /, 4006, 6.0, 12, 8, -19
COc1ccc2ccccc2c1/C=N/NC(=O)c1cccc(Br)c1
    /, 5, 2465, /, /, /, -7
Cc1ccccc1NC(=O)N1C2CCC1CC(O)(c1cccnc1)C2 (configuration not stated)
    6, 4, 3381, 6.7, 6, 3, -16
Cc1nn(-c2ccccc2)c(CC(C)(C)C(=O)O)c1C(=O)O
    0, 6, 4972, 4.7, /, /, -28
CCCCCOC(=O)C1=C(C)Nc2ncnn2C1c1cccs1 (configuration not stated)
    -16, 19, 6062, 0.7, 1, 8, -8
COc1cccc(NC(=S)N(CCCN2CCN(C)CC2)Cc2ccco2)c1
    1, -1, 3941, 0.0, 12, -4, -34
COc1cc2c(C(=O)N3CCCc4ccccc43)cn(C)c(=O)c2cc1OC
    0, -22, 10076, 7.3, 7, 2, -9
COc1ccccc1CC(NC(C)=O)C(=O)NC1CCN(C(=O)c2cccc(Cl)c2)CC1 (configuration not stated)
    4, 10, 5737, 1.7, -2, -12, -5
